RE007 growth inh – less growth of the S. pombe RE007 Vpr strain; Potency, µM (highest dose often 92.2 µM), for the others: at the top dose activity change, negative = less growth; 0.21% of 360,000 active; S. pombe RE007 Vpr strain, BacTiter-Glo ATP luminescence, 24 h; control for the full effect not named in the record; active = well fitted falling curve with a large enough effect; inconclusive = small, poorly fitted or top-dose-only effect; inactive = no such curve, though single readings can be large or run the other way;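 also: nearly all actives have a fitted effect of over 50% in size; the assay follows cell death caused by Vpr and the record does not say whether a fall means rescue or toxicity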
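Fission yeast strain RE007, carrying one chromosomally integrated HIV-1 vpr copy, was seeded at OD 0.01 in PMG+AL medium with 23 nL pinned compound. After 24 h at 30 °C and 99% humidity, viability was read by BacTiter-Glo luminescence.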
2A StopGo – lowers the luciferase signal of an FMDV 2A StopGo reporter | Potency, µM (top dose mostly 57.9 µM), for inactives: at the top dose signal change, negative = less light | 1.2% of 410,000 active | human cells with a luciferase reporter of 2A StopGo recoding; control for the full effect not named in the record; active = well fitted falling curve with a large enough effect; inconclusive = small, poorly fitted or top-dose-only effect; inactive = no such curve, though single readings can be large or run the other way; tested in HEK293T cells; also: nearly all actives have a fitted effect of over 45% in size; luciferase light after 4 h
* hit, by the source's call; ? = inconclusive; [ ] = another dose, or the depositor's remark. % is scaled to controls: 0 for no effect and ±100 for the full control effect; potency is read from the fitted curve at half-maximal effect. A portion of the library (hit frequency here may not be typical).

Screens in order: RE007 growth inh, 2A StopGo
Cc1ccccc1S(=O)(=O)NC(=O)C1(C)CCN1C(=O)Cc1cccs1 (stereo not drawn)
  8%[18.4 µM], -10%
CCCC(=O)N1CCC1(C)C(=O)Nc1ccc2c(c1)CCN2C(C)=O (stereo not drawn)
  10%, -15%
Cc1ccc(S(=O)(=O)NCN2C(=O)c3ccccc3C2=O)cc1
  2%, -2%
CCN(CC)C(=O)C1CCCN(C(=O)c2ccc3nc(-c4cccc(OC)c4)oc3c2)C1 (stereo not drawn)
  11%, -9%
CCc1nc2c(OCc3ccc(C(=O)OC)cc3)cccn2c1N(C)C(=O)CC(C)C
  -20%, -9%
CCCS(=O)(=O)NC(=O)C1(C)CCCN(C(=O)c2c(F)cccc2F)C1 (stereo not drawn)
  2%[18.4 µM], 4%
Cc1ccc(CN2C(=O)CCC2(C)c2nnnn2-c2c(C)cccc2C)cc1 (stereo not drawn)
  6%, -5%
C[C@@H]1CN([C@H](C)CO)C(=O)CCCn2cc(nn2)CO[C@H]1CN(C)C(=O)Nc1cccc(F)c1
  15%, -2%
Cc1ccc(S(=O)(=O)NC(=O)C2(C)CCN2C(=O)C2CC2)cc1 (stereo not drawn)
  1%, -10%
C[C@@H]1CN([C@@H](C)CO)C(=O)c2cc(C#CC3CCCCC3)cnc2O[C@@H]1CN(C)S(=O)(=O)c1ccc(F)cc1
  19%, 0%
CCN(CC)CCN(C)C(c1ccnc2ccccc12)c1nnnn1-c1ccc2c(c1)OCCO2 (stereo not drawn)
  -29%, -1%
COc1ccc(/C=C2\SC(=O)N(CCCC(=O)Nc3ccc(C(=O)O)cc3)C2=O)cc1
  -10%, 4µM*
CC(C)C[C@@H](CN)NC(=O)c1nc[nH]c1C(=O)N[C@@H](CC(C)C)C(=O)CNC[C@H](C)NC(=O)c1nc[nH]c1C(=O)N[C@@H](C)C(=O)O
  -15%, -23%
CNc1nc(NCc2ccccc2)c2sccc2n1
  -26%, -22%
CN1CCn2cnc(C(=O)N3CCN(c4ccccc4)CC3)c2C1=O
  -22%, -6%
O=C(Cc1ccc(NC(=O)C2CCN(C(=O)C3CCCC3)CC2)cc1)Nc1cccc(C(=O)N2CCCCC2)c1
  8%, 1%
Cc1ccc(S(=O)(=O)N2C3CCCCC3O[C@H]2CC(=O)c2ccc(F)cc2)cc1 (stereo partly drawn)
  ?, -3%
CC1(Cc2ccc(Cl)c(Cl)c2)C(=O)Nc2c(Cl)ccc(Cl)c21 (stereo not drawn)
  -16%, -6%
CN(Cc1ccccc1)C(=O)c1csc([C@@H]2O[C@H](CO)[C@@H](O)[C@H]2O)n1
  4%, 8%
COc1ccc(-c2c(-c3ccsc3)oc3ccc(N4CCOCC4)cc23)cc1
  1%, -12%
CCc1nc2c(OCc3ccc(C#N)cc3)cccn2c1N(C)C(=O)C(C)C
  -15%, -5%
C=CCNC(=O)c1cc2cc(Cl)ccc2nc1N
  -13%, -24%
CCNC(=O)C1(C)CCN(C(=O)c2cc(C)oc2C)C1 (stereo not drawn)
  1%, -17%
COc1ccc(CC(N)c2csc(NC(=O)c3cc(C(C)(C)C)nn3Cc3ccccc3)n2)cc1 (stereo not drawn)
  -11%[18.4 µM], -23%
CC(=O)O[C@@H]1C[C@H](c2ccccc2)OC(=O)CCCCC1=O
  -14%, -20%
CCOc1ccc(CCN2C(=S)N([C@@H](CC(C)C)CN3CCCC3CN3C(=S)NC[C@@H]3Cc3ccccc3)C[C@@H]2CC(C)C)cc1 (stereo partly drawn)
  -25%, 0%
COCCNC(=O)C1CCCN(Cc2cccc(C#N)c2)CC1 (stereo not drawn)
  -7%[18.4 µM], -17%
Cn1c(=O)c2cc(NC(=O)NCc3ccc(F)cc3)ccc2n1Cc1cccc(C(F)(F)F)c1
  -5%, -6%
CSc1ncnc2c1ncn2CCCNCC1CCCCC1
  -27%, -9%
CCc1ccc(N2CC(C(=O)N3CCN(S(=O)(=O)c4cccc(F)c4)CC3)CC2=O)cc1 (stereo not drawn)
  13%, -26%
CCOC(=O)C[C@H]1c2ccc(C(F)(F)F)cc2S(=O)(=O)N1C(C)(C)C
  3%, 2%
CCC(C)c1ccc(S(=O)(=O)N2CCN(C(=O)c3ccc(Cl)c(S(=O)(=O)N4CCOCC4)c3)CC2)cc1 (stereo not drawn)
  8%, ?
CCOC(=O)N1CCN(S(=O)(=O)N2CCCC(C(=O)NCc3ccccc3OCC)C2)CC1 (stereo not drawn)
  13%, -27%
CC(C)Cc1nnc(NC(=O)C2CCCN(C(=O)c3ccc(Cl)cc3)C2)s1 (stereo not drawn)
  -2%, -15%
Cn1sc2ccccc2c1=O
  ?, 0%
Cc1cc(=O)n(Nc2ccccc2)c(O)c1C#N
  23%, -11%
CCCCCCCCNS(=O)(=O)CCNCCCC
  -20%, -7%
Cc1cccc(C)c1NC(=O)C1(C)CN(S(C)(=O)=O)CC(=O)N1Cc1cccs1 (stereo not drawn)
  2%, -11%
CCC(c1nnnn1-c1ccc2c(c1)OCCO2)N1CCN(C)CC1 (stereo not drawn)
  -5%, -9%
O=C(Nc1c(-c2ccccc2)[nH][nH]c1=O)c1cccc(C(F)(F)F)c1
  8%, -14%
COc1ccc(CNCCS(=O)(=O)NC2CCCCC2)cc1
  -14%, 0%
Cc1cc(C)c(S(=O)(=O)c2ccc(F)cc2)c(C)c1
  -19%, -25%
O=C1CCC(OCc2ccccc2)CCN1CC[C@@H](Sc1ccccc1)c1ccccc1 (stereo partly drawn)
  -13%, -19%
CCCS(=O)(=O)NC(=O)C1(C)CCCN(C(=O)c2cc(F)ccc2C)C1 (stereo not drawn)
  -7%, -10%
CC[C@H](C)[C@@H]1NC(=O)CNC(=O)c2csc(n2)[C@H](C(C)(C)O)OC(=O)C(C)(C)[C@H](CCCC(C)(Cl)Cl)OC(=O)c2csc1n2
  ?, -14%
Cc1ccn2c(Cc3ccccc3)c(-c3ccc(Br)cc3)nc2c1
  -3%, 28%
CC(C)[C@@H]1CC2=C(C(=O)OC(C)(C)O2)[C@H](CCc2ccccc2)O1
  -6%, -24%
CCCCN(C=O)c1c(CC)nc2ccc(C(=O)N3CCN(C)CC3)cn12
  -5%[18.4 µM], -12%
CN1OC[C@@H]2CN(Cc3cc(Cl)cc(Cl)c3)[C@H](c3cccc(Oc4ccccc4)c3)C[C@@H]21
  -29%, ?
CCCCNC(=O)C(=O)Nc1ccc2c(c1)N(S(=O)(=O)c1cccs1)CCC2
  -8%, 15%
Cc1ccc(NC(=O)COC(=O)CN2CCSC2=O)cc1Cl
  8%, -19%
COc1cc(CN2C(=O)C(C)ON=C2c2cccs2)cc(OC)c1 (stereo not drawn)
  19%[18.4 µM], -20%
CCCn1c(N)c(N(CCOC)C(=O)COC(=O)COc2c(C)cc(C)cc2C)c(=O)[nH]c1=O
  9%, -10%
C[C@H]1CN([C@@H](C)CO)C(=O)CCCn2nncc2CO[C@@H]1CN(C)S(=O)(=O)c1ccc(-c2ccccc2)cc1
  -6%, -25%
CC1(C(=O)NS(=O)(=O)c2cccc(F)c2)CCN1C(=O)CCc1ccc(Cl)cc1Cl (stereo not drawn)
  -1%[18.4 µM], -11%
CN1CC[C@@]2([C@@]34CCN(C)C3Nc3ccccc34)c3ccccc3NC12 (stereo partly drawn)
  12%, -17%
COc1ccc(F)cc1-c1cc(C(=O)Nc2ccc(NC(C)=O)cc2)[nH]n1
  0%, 16%
O=C(NC1CC1)c1ccc(CSCc2ccc(Cl)cc2)o1
  13%, ?
CCCCNC(=O)C(NC(=O)c1cccs1)C(=O)c1ccccc1 (stereo not drawn)
  1%, 14%
O=C(NCc1cc(Cl)cc(Cl)c1)c1ccc2nc([C@@H]3O[C@H](CO)[C@H](O)[C@H](O)[C@H]3O)[nH]c2c1
  -7%, -21%

Next section:
Screens in order: RE007 growth inh, 2A StopGo
NC(Cc1ccc(Cl)cc1)c1csc(Nc2cnccn2)n1 (stereo not drawn)
  5%, ?
COCC1CCN(C(=O)c2ccc3nc(Cc4cccc(Cl)c4)oc3c2)CC1
  1%, 2%
COc1ccc(NC(=O)N2C[C@H]3CON(C)[C@H]3C[C@H]2c2ccc(N3CCCCC3)cc2)cc1
  5%, 1%
Cc1ccccc1S(=O)(=O)NC(=O)C1(C)CCN1C(=O)Cc1ccc(C(C)(C)C)cc1 (stereo not drawn)
  7%, -11%
CCN(C(=O)COC(=O)CNC(=O)c1cccs1)c1c(N)n(Cc2ccccc2)c(=O)[nH]c1=O
  11%, -19%
O=C(Nc1cccc(C2=NCCN2)c1)Nc1cccc(C2=NCCN2)c1
  -24%[18.4 µM], -19%
OC(c1cccc(Cl)c1)c1ncc(-c2cccc3ccccc23)[nH]1 (stereo not drawn)
  -16%, 29%
O=C(Nc1cccc(C(=O)O)c1)/C(=C\c1ccc2c(c1)OCO2)NC(=O)c1ccccc1Br
  -8%, -3%
CC(=Cc1cccs1)C(=O)c1ccccc1
  -11%, 21%
CCOC(=O)C1CCCN(C(=O)C2CCN(Cc3nc(-c4ccc(Cl)cc4)oc3C)CC2)C1 (stereo not drawn)
  -7%, ?
CN1CCN(C(=O)C(=O)c2cn(CC(=O)N3CCOCC3)c3ccccc23)CC1
  7%, -3%
CSC[C@H]1CN(Cc2cccnc2)C(=O)[C@@H]1CC(=O)Nc1ccc(Br)cc1
  0%, -5%
CC1(Oc2ccc(Cl)cc2)CCN(Cc2csc3ccccc23)C1 (stereo not drawn)
  -28%, -24%
COc1cccc(-c2cnc3c(NC=O)cc(-c4ccoc4)cn23)c1
  0%[18.4 µM], -20%
CC(O)(c1cccc(F)c1)c1nc(/C=C/c2ccccc2)cs1 (stereo not drawn)
  ?, 0%
CCOc1ccc(NS(=O)(=O)c2ccc(C(=O)N(C)CC(=O)Nc3ccccc3Br)cc2)cc1
  -8%, -10%
COC(=O)[C@]12CCCCC=C1N(Cc1ccc(Cl)cc1Cl)C(=O)[C@H](CC(=O)NCc1ccccc1)C2
  9%, -9%
COc1ccc(S(=O)(=O)N(C)C[C@H]2OCCCC[C@H](C)Oc3ccc(NC(=O)Nc4ccc(F)cc4)cc3C(=O)N([C@H](C)CO)C[C@H]2C)cc1
  2%, -25%
CC1(CCCc2ccc(N(CCCl)CCCl)cc2)NC(=O)NC1=O (stereo not drawn)
  -20%, -4%
N#Cc1ccc(OCC(=O)Nc2nc(-c3ccccn3)cs2)cc1
  -19%, ?
O=C1NC[C@@H](CCCCN2C[C@H](Cc3ccc(O)cc3)N(CCc3ccc(O)cc3)C(=O)C2=O)N(Cc2ccccc2)C1=O
  -1%, -14%
Clc1ccc(-c2cccc3nccn23)cc1
  -22%, 8%
Fc1ccc(-c2nc3c(Cl)cc(C(F)(F)F)cn3c2Cc2ccsc2)cc1
  -2%, 15%
Cc1ccc(S(=O)(=O)N(C)C[C@@H]2OCc3cnnn3CCCC(=O)N([C@@H](C)CO)C[C@@H]2C)cc1
  10%, -8%
CCOC(=O)C1(C)CCCN(C(=O)c2cccs2)C1 (stereo not drawn)
  -12%, -22%
CCCNC(=O)C1(C)CCN(Cc2csc3ccccc23)C1 (stereo not drawn)
  -11%, -10%
COc1cccc(NC(=O)C2CCN(S(=O)(=O)c3ccc(N4CCCC4=O)cc3)CC2)c1
  -3%, ?
COc1ccc(-c2oc3ccc(-c4ccc5c(c4)OCO5)cc3c2-c2ccc(OC)nc2)cc1
  6%, -7%
CC1(C(=O)NS(=O)(=O)c2ccccc2Cl)CCN1C(=O)CCc1ccccc1 (stereo not drawn)
  6%, 6%
CCC(=O)c1cc(Br)ccc1OCC(=O)N1CCN(S(=O)(=O)c2ccccc2)CC1
  -9%, 0%
OCC[C@@H]1C[C@H](O)[C@@H](O)[C@]2(OCc3cc(Cl)ccc32)O1
  1%, -11%
Cc1cccc[n+]1CC(=O)c1ccc(Cl)cc1
  7%, 2%
S=C(SSC(=S)N1CCOCC1)N1CCOCC1
  1%[18.4 µM], -18%
OCCCn1c(CCNc2nc(-c3ccc(Cl)cc3)cs2)nc2cc(C(F)(F)F)ccc21
  4%, -15%
COc1ccc(OC)c(CN2C(=O)CSCC2(C)C(=O)NC(C)C)c1 (stereo not drawn)
  0%, -2%
C[C@@H]1CN([C@H](C)CO)C(=O)c2cc(-c3ccc(F)cc3)cnc2O[C@H]1CN(C)C(=O)c1ccc(F)cc1
  21%, -28%

Compounds listed so far with bromine:
Screens in order: RE007 growth inh, 2A StopGo
Cc1ccn2c(Cc3ccccc3)c(-c3ccc(Br)cc3)nc2c1
  -3%, 28%
O=C(Nc1cccc(C(=O)O)c1)/C(=C\c1ccc2c(c1)OCO2)NC(=O)c1ccccc1Br
  -8%, -3%
CSC[C@H]1CN(Cc2cccnc2)C(=O)[C@@H]1CC(=O)Nc1ccc(Br)cc1
  0%, -5%
CCOc1ccc(NS(=O)(=O)c2ccc(C(=O)N(C)CC(=O)Nc3ccccc3Br)cc2)cc1
  -8%, -10%
CCC(=O)c1cc(Br)ccc1OCC(=O)N1CCN(S(=O)(=O)c2ccccc2)CC1
  -9%, 0%

Screening results (PubChem BioAssay)
